Screening data from PubChem BioAssay.
2A StopGo – lowers the luciferase signal of an FMDV 2A StopGo reporter; human cells with a luciferase reporter of 2A StopGo recoding; control for the full effect not named in the record; Potency, µM (doses to about 57.9 µM), for the others: at the highest dose signal change, negative = less light; 410,000 tested, 1.2% active; AID 1159524; active = well fitted falling curve with a large enough effect; inconclusive = small, poorly fitted or top-dose-only effect; inactive = no such curve, though single readings can be large or run the other way; tested in HEK293T cells; further: on the % scale 0 is the no-effect control and ±100 the full control effect; nearly all actives have a fitted effect of over 45% in size; luciferase light after 4 h
Lassa entry inh – Lassa virus entry inhibition. 300,000 tested, 1.2% active. AID 540256. Lassa virus pseudotype entry inhibition, cell reporter; control for the full effect not named in the record. Potency, µM (doses to about 37.9 µM), without a hit: at the highest dose activity change, negative = inhibition, most hits filed as inhibitors; active means well fitted inhibition curve with a large enough effect; inconclusive means small, poorly fitted or top-dose-only effect, or effect the other way; inactive means flat fitted curve, though single readings scatter; tested in HEK293 cells; further: on the % scale 0 is the no-effect control and ±100 the full control effect; nearly all actives have a fitted effect of over 50% in size; luciferase read-out
SARS PLpro yeast – SARS-CoV PLP inhibition in yeast; S. cerevisiae expressing SARS-CoV PLpro, growth rescue; control for the full effect not named in the record; Potency, µM (doses to about 32.9 µM), for the others: at the top dose activity, positive = growth rescue; 330,000 tested, 0.19% active; active means well fitted rising curve with a large enough effect; inconclusive means small, poorly fitted or top-dose-only effect; inactive means no such curve, though single readings can be large or run the other way; further: 0% is about no effect; nearly all actives have a fitted effect of over 55% in size; growth read by luminescence after 48 h
NS1 inh – blocks influenza NS1 protein function. Potency, µM (highest dose often 46.1 µM), without a hit: top-dose activity, positive = more growth. S. cerevisiae slowed by influenza A NS1, growth recovery by OD600. 270,000 tested, 0.4% active; active means well fitted rising curve with a large enough effect; inconclusive means small, poorly fitted or top-dose-only effect; inactive means no such curve, though single readings can be large or run the other way; further: nearly all actives have a fitted effect of over 50% in size
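OD600 was taken as the measure of yeast growth restored by compound in an NS1-expressing S. cerevisiae strain. Cells had been washed out of glucose medium and diluted 1:100 into galactose -URA medium, pH 6.0.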
MARV entry inh – blocks Marburg virus binding to or entry into cells; Marburg virus pseudotyped entry inhibition, cell reporter; control for the full effect not named in the record; about a third of the inactives were read at about 46 µM; Potency, µM (titrated, usually from 37.8 µM), inactives show at the highest dose activity change, negative = inhibition, most hits filed as inhibitors; 300,000 tested, 1.8% active; active = well fitted inhibition curve with a large enough effect; inconclusive = small, poorly fitted or top-dose-only effect, or effect the other way; inactive = flat fitted curve, though single readings scatter; tested in HEK293 cells; about a fifth of its hits are not listed in these tables; further: on the % scale 0 is the no-effect control and ±100 the full control effect; luciferase read-out
RE007 growth inh – less growth of the S. pombe RE007 Vpr strain; S. pombe RE007 Vpr strain, BacTiter-Glo ATP luminescence, 24 h; control for the full effect not named in the record; 360,000 tested, 0.21% active; Potency, µM (doses to about 92.2 µM), inactives show top-dose activity change, negative = less growth; AID 651644; active = well fitted falling curve with a large enough effect; inconclusive = small, poorly fitted or top-dose-only effect; inactive = no such curve, though single readings can be large or run the other way;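 further: on the % scale 0 is the no-effect control and ±100 the full control effect; nearly all actives have a fitted effect of over 50% in size; the assay follows cell death caused by Vpr and the record does not say whether a fall means rescue or toxicity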
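Fission yeast RE007 carrying one integrated HIV-1 vpr copy, seeded at OD 0.01 in PMG+AL medium with 23 nL pinned compound. Grown 24 h at 30 degrees; viability read by BacTiter-Glo luminescence after 5 min.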
Cruzain inh noDet – inhibitors of Trypanosoma cruzi cruzain without detergent; P25779; purified cruzain, Z-FR-AMC fluorescence, no detergent; Potency, µM, for the others: max response, negative = inhibition, hits mostly inhibitors; 200,000 tested, 2.3% active; AID 1476;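 further: plate controls were enzyme without inhibitor for no effect and buffer without enzyme for full effect; nearly all actives have a fitted effect of over 40% in size; top concentration of the series not given in the record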
Target sequence (P25779 123-467 limits assumed): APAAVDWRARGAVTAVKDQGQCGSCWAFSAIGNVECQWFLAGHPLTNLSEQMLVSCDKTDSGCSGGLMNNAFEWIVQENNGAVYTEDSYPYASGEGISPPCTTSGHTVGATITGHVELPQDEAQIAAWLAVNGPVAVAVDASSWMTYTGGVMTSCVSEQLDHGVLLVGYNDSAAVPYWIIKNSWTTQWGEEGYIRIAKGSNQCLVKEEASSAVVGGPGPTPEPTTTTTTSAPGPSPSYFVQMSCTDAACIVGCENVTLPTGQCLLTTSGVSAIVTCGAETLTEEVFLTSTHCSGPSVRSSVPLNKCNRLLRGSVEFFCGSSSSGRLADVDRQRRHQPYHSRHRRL
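Detergent-free condition (0.00005% Triton X-100) in acetate buffer pH 5.5 with DTT. 1.5 nM enzyme and compound were pre-mixed 15 min, then 2 uM Z-FR-AMC substrate added; reaction progress from fluorescence change between first and third reads (60 s).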
Cruzain inh Det – inhibitors of Trypanosoma cruzi cruzain with detergent; P25779; Potency, µM, without a hit: max response, negative = inhibition, actives largely listed as inhibitors; 200,000 tested, 0.43% active; purified cruzain, Z-FR-AMC fluorescence, 0.01% Triton;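 further: plate controls were neutral wells for no effect and buffer without enzyme for full effect; nearly all actives have a fitted effect of over 40% in size; top concentration of the series not given in the record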
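Detergent-containing run (0.01% Triton X-100) in acetate buffer pH 5.5 with 5 mM DTT: enzyme at 1.5 nM final, 15 min compound preincubation at room temperature, then 2 uM Z-FR-AMC substrate. Activity taken as 60 s fluorescence increase at 360/450 nm.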
Numbers without * were called inactive; ? = inconclusive; / = no result given; [ ] = dose if it differs, or a comment. Unless noted, the call rests on the fitted dose curve; in most records, active means well fitted curve in the direction sought with a large enough effect; inconclusive means small, poorly fitted or top-dose-only effect, or another doubt; inactive means no such curve, though single readings can be large; an effect the other way counts as inactive or inconclusive. Potency means the concentration at half of the fitted maximal effect.

SMILES	2A StopGo	Lassa entry inh	SARS PLpro yeast	NS1 inh	MARV entry inh	RE007 growth inh	Cruzain inh noDet	Cruzain inh Det
COc1ccc(CC(NC(C)=O)C(=O)NC2CCN(C(=O)Nc3ccccc3Cl)CC2)cc1OC (stereo not given)	22%	1%	2%	-5%	0%	-4%	-1%	-1.9%
O=C(Nc1cccc(Cl)c1)OC1CCCCc2cccnc21 (stereo not given)	?	?	-3%	-51%	?	-11%	/	/
CCOc1cc(C(=O)N/N=C/c2ccoc2)cc(OCC)c1OCC	5%	/	-1%	12%	/	1%	/	/
NC(=O)c1ccccc1NS(=O)(=O)c1ccc2c(c1)OCCO2	-8%	6%	-9%	-2%	2%	6%[3.69 µM]	5%	-1.9%
CCOc1ccc(-n2c(CCc3ccccc3)n[nH]c2=S)cc1	-28%	?	-2%	5%	27%	13%	/	/
CC(C)CC(=O)c1c[nH]c(C(=O)N2CCN(Cc3ccccc3)CC2)c1	1%	?	0%	/	15%[46.1 µM]	1%	/	/
CC1CN(C(=O)CCS(=O)(=O)c2ccccc2)CC(C)O1 (stereo not given)	34%[activator]	15%[46.1 µM]	-11%	17%	?	-1%	/	/
CC(=O)Nc1ccc(C2=NNC(=Nc3cccc(S(=O)(=O)N(C)C)c3)SC2)cc1	-14%	/	0%	16%	/	-7%	/	/
CC(C)C[C@@H](CSc1ccccc1)N1CCN(CC(C)C)CCC1=O	45%[activator]	/	-3%	-17%	/	-3%	/	/
Cc1cccc(-n2c(O)c(C=Nc3ccc(O)cc3)c3ccccc3c2=O)n1	-24%	?	3%	-1%	-15%	3%	?	-11%
Cc1cc(C)nc(NC(=O)C2c3ccccc3Oc3ccccc32)n1	-7%	3%	0%	1%	-8%[46.1 µM]	-9%	/	/
COc1ccc(C2=NN(c3ccccc3)C(c3cccs3)C2)cc1 (stereo not given)	19%	-3%	-1%	-1%	2%[46.1 µM]	1%	/	/
C=CCN(C(=O)CN1CCOCC1)c1nc(C)c(-c2ccccc2)s1	22%	3%	8%	-112%	?	-4%	?	-2.8%
Cc1ccc(CNC(=O)CSC2=Nc3ccccc3N=C(c3ccc(F)cc3)C2)cc1	0%	12%[46.1 µM]	/	/	/	/	4%	-1.4%
O=C(CN1C(=O)c2ccccc2S1(=O)=O)NCc1ccccn1	44%[activator]	0%	3%	3%	-1%	-1%	-1%	11%
CC(=O)c1ccc(N2CCN(c3ncnc4c3cnn4C)CC2)cc1	?	18%[46.1 µM]	/	/	/	/	2%	0.5%
NC(=O)C1(c2ccccc2)CCOCC1	-4%	0%	15%	4%	23%	-20%	2%	-4.3%
Cc1ccc(-c2c(C)n3c4c(=O)n(C)c(=O)n(C)c4nc3n2CCO)cc1	18µM*	?	/	/	/	/	-9%	0.5%
COc1ccc(OC)c(CNS(=O)(=O)c2cn(C)cn2)c1	-17%	/	-3%	-12%	/	-2%	/	/
COc1nc(NC(C)C)nc(N(C#N)CN2C(=O)c3ccccc3S2(=O)=O)n1	?	8%	1%	-10%	2%[46.1 µM]	-4%	/	/
Cc1ccc(OCCNC(=O)c2ccc3c(c2)OCO3)cc1	41%[activator]	/	-4%	-27%	/	12%	/	/
CCn1c(O)c(N=NC(=O)c2cccnc2)c2cc(Br)ccc21	-21%	?	1%	-2%	?	-5%	/	/
COc1cccc(C(=O)NC(=S)Nc2cccnc2)c1	14%	14%	-19%	11%	-1%	-21%	2%	0.6%
C(=N\n1cnnc1)/c1cccc(OCCOc2ccccc2)c1	-20%	-9%	-8%	-34%	?	36%	13%	1.4%
Cc1cc(OCC(=O)Nn2cnnc2)c(C)cc1Br	-18%	-2%	-3%	5%	1%	8%	0%	-3.0%
Next section.
SMILES	2A StopGo	Lassa entry inh	SARS PLpro yeast	NS1 inh	MARV entry inh	RE007 growth inh	Cruzain inh noDet	Cruzain inh Det
COc1ccccc1CNC(=O)C1CCCN(C(=O)c2cnn(-c3ccc(F)cc3)c2-n2cccc2)C1 (stereo not given)	-21%	-22%[46.1 µM]	/	/	/	/	?	-3.6%
CCOC(=O)c1cnc2c(C)c(Cl)ccc2c1NCCc1ccccc1	-19%	19%[46.1 µM]	/	/	/	/	-2%	0.8%
Cc1ccsc1/C=N/n1c(-c2cccnc2)n[nH]c1=S	8%	12%	9%	-3%	26%	-6%	13%	4.0%
CCOc1cc(NC(=S)NCC2CCCO2)c(OCC)cc1NC(=O)c1cccc(C)c1 (stereo not given)	3.2µM*	?	5%	16%	1.6µM*	23%	-11%	-6.0%
COc1ccc(C(=O)NCC(=O)OCC(=O)N2CC(C)CC(C)C2)cc1 (stereo not given)	4%	-4%	2%	0%	-14%	24%	-14%	-12%
CCOC1=C(N2CC2)C(=O)C(OCC)=C(N2CC2)C1=O	0%	32%	/	/	2%	1%	/	/
CC1(C)Cc2c(C#N)c(NCC3CCCO3)nc(-c3ccco3)c2CO1 (stereo not given)	-23%	-16%	-8%	-3%[9.22 µM]	?	-5%	22%	-14%
COC(=O)c1cn(NC(=O)Cc2cccc(OC)c2)c(=O)c2ccccc12	-4%	-2%	10%	1%	-3%	-3%	4%	3.6%
Cc1cc(C)cc(NC(=O)CSc2nnc(-c3ccccc3)n2N)c1	7%	10%	10%	3%	5%	58%	-30%	3.4%
O=C1N=C(N2CCCCC2)S/C1=C\c1ccccc1F	86%[activator]	-26%	-18%	-38%	?	1%	/	/
O=C(O)CC(=O)Nc1cc(Cl)ccc1O	/	12%	5%	-2%	3%	5%	-7%	6.9%
Cc1oc2cc(O)ccc2c(=O)c1-c1ccccc1	2%	12%	-2%	/	16%[46.1 µM]	-10%	/	/
CCCC1OC2CC3C4CCC5=CC(=O)C=CC5(C)C4C(O)CC3(C)C2(C(=O)O)O1 (stereo not given)	12%	/	-3%	18%	/	-1%	/	/
C[N+]1(CCCCSc2ccc(O)cc2)CCCCC1	-1%	-1%	-4%	3%	1%	-12%	0%	-1.7%
O=[N+]([O-])c1ccc(N2CCN(C(=S)NCc3ccc(Cl)cc3)CC2)cc1	?	/	-1%	?	/	-13%	/	/
O=C(CSc1cnc2ccccc2n1)NC1CCCC1	-2%	2%	-1%	-9%	-18%	0%	2%	-1.4%
Cc1ccc(OC/C(=N\O)C(C)(C)C)c([N+](=O)[O-])c1	-3%	?	-6%	/	?	-6%	/	/
O=C(c1cc2cc(Br)ccc2o1)N1CCCCC1	6%	0%[46.1 µM]	-5%	-6%	?	-21%	/	/
O=C(NC(Oc1ccccc1)C(Cl)(Cl)Cl)c1ccccc1 (stereo not given)	0%	-21%	1%	5%	0%	6%	-3%	-3.0%
Cc1cccc(C)c1NC(=O)CSc1nnc(-c2ccco2)n1N	-15%	6%	3%	9%	-4%	-4%[3.69 µM]	-2%	10%
Oc1ccc(CC2(N3CCCC3)CCCCC2)cc1	-5%	/	-10%	-43%	/	1%	/	/
CCc1ccccc1NC(=S)N(CCOC)C(C)c1ccco1 (stereo not given)	5%	6%	1%	-7%	7%[46.1 µM]	5%	/	/
Cc1ccc(S(=O)(=O)NN2C(=O)c3ccccc3NC2c2ccccc2)cc1 (stereo not given)	-9%	-26%[46.1 µM]	3%	/	?	5%	/	/
Cc1ccc([N+](=O)[O-])cc1N=Nc1c(C)[nH]n(C(N)=S)c1=O	8%	/	-2%	1%	/	3%	/	/
COC(=O)[C@@]1(C)CC[C@]2(C)CC[C@@]3(C)C(=CC(=O)C4[C@@]5(C)CC[C@H](O)C(C)(C)[C@@H]5CC[C@]43C)[C@H]2C1 (stereo not given in full)	28%	/	-2%	-3%	/	-4%	/	/
(cont.)
SMILES	2A StopGo	Lassa entry inh	SARS PLpro yeast	NS1 inh	MARV entry inh	RE007 growth inh	Cruzain inh noDet	Cruzain inh Det
CCN(CC)C(=O)Cn1cc(S(=O)(=O)CC(=O)NCc2ccccc2)c2ccccc21	7%	1%	8%	20%	18%	-6%	/	/
CCCS(=O)(=O)c1nc(S(=O)(=O)c2ccc(C)cc2)c(NCCCN2CCCC2=O)s1	12%	-10%[46.1 µM]	-3%	-4%	-14%[46.1 µM]	-11%	/	/
Cc1ccsc1C1C2=C(CC(C)(C)CC2=O)Nc2ncnn21 (stereo not given)	-19%	/	8%	?	/	-13%	-4%	-1.9%
Cc1cccc(C)c1Nc1nnc(SCC(=O)NC2CCS(=O)(=O)C2)s1 (stereo not given)	-9%	8%	21%	13%	4%	/	5%	-1.9%
CC(C)CC1NC(=O)N(CC(=O)Nc2ccc3c(c2)CCC3)C1=O (stereo not given)	-1%	20%[46.1 µM]	-1%	/	?	6%	/	/
NC(=O)CC(NC(=O)c1ccccc1)c1ccc(NCc2ccccc2)c([N+](=O)[O-])c1 (stereo not given)	-9%	/	0%	64%	/	9%	/	/
Cc1ccc(-c2nnc(N3CC(C)OC(C)C3)c3ccccc23)cc1 (stereo not given)	?	?	0%	/	-6%[46.1 µM]	10%	/	/
O=C(CNC(=O)c1cccnc1)N=Nc1c(O)[nH]c2c(Br)cc(Br)cc12	-18%	/	-3%	15%	/	2%	/	/
O=C(CCS(=O)(=O)c1ccc(Br)s1)NC1CCCC1	3%	-5%	5%	2%	1%	7%	2%	5.9%
Cc1nc(C(=O)NC2CCCCC2)sc1C1(C)CC(c2cccc([N+](=O)[O-])c2)=NO1 (stereo not given)	?	/	-1%	2%	/	0%	/	/
Cc1cc(C(=O)N(C2CCCCC2)C2CCCCC2)no1	-12%	-16%[14.3 µM]	-1%	-18%	?	-11%	1%	-0.7%
O=C(NCc1ccco1)C1CCC(N2C(=O)C3C4CCC(C4)C3C2=O)CC1 (stereo not given)	11%	-6%	1%	5%	5%[46.1 µM]	8%	/	/
CCCCn1c(-c2ccccc2)cnc1SCC(=O)NCCc1ccc(OC)c(OC)c1	/	?	-3%	-28%	?	7%	?	-5.6%
Cc1sc(/N=C/c2ccccc2O)c(C#N)c1C	/	/	-1%	-1%	0%	/	?	7.0%
CCOc1ccc(S(=O)(=O)Nc2ccc(S(=O)(=O)N3CCCC3)cc2)cc1	/	?	4%	10%	-2%	0%	-4%	-4.5%
COC(=O)c1ccc(NC(=O)CCc2c(C)nc3c(c(C)nn3C(C)(C)C)c2C)cc1	-1%	-3%[46.1 µM]	/	/	-17%[46.1 µM]	/	?	-7.7%
